TsaE inh = qHTS Assay for Inhibitors of YjeE | Potency, µM | AID 605, 2007 | actives 0.05% (n = 71,000) | tRNA threonylcarbamoyladenosine biosynthesis protein TsaE (Escherichia coli (strain … | purified YjeE, fluorescence polarisation of a bound ADP probe; active = well fitted falling curve; inconclusive = weaker or top-dose-only fall, or a rising curve; inactive = flat or poorly fitted curve;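 further: top concentration of the series not given in the record; excess ADP was the control for the full effect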
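Purified YjeE (10 uM) with BODIPY Texas Red-labeled ADP probe (2 uM); compounds pin-transferred, 15 min at room temperature. Binding inhibition read as decreased fluorescence polarization; ADP titration as control.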
PK Bst = Pyruvate Kinase | actives 1.2% (n = 51,000) | partly purified Bacillus stearothermophilus pyruvate kinase, luminescence ATP production; ribose 5-phosphate activator present at AC10 | Potency, µM; in the data active means potency below about 11 µM; inconclusive means mostly about 12 µM to 25 µM; inactive means weaker than that;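 the screen sought inhibitors and activators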;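 further: potency means the concentration at half of the fitted maximal effect; scaled between full activation by ribose 5 phosphate and full inhibition by luteolin; about four in five hits inhibit and the cells do not say which; series up to 57 µM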
* = called active by the depositor; i = inactive; ? = inconclusive; . = not tested or not shown.

canonical_smiles | TsaE inh | PK Bst
Cc1cc2ccccc2c(=O)n1CC(=O)NC1CCCCCC1 | i | >57
COC(=O)c1sc2ccccc2c1NC(=O)c1cccs1 | i | >57
N#C[C@H](c1ccccc1)N1CCCN([C@@H](C#N)c2ccccc2)C1c1ccccc1O (stereo not given in full) | i | .
COC(=O)c1noc(-c2ccc(OC)cc2)n1 | i | >57
Cc1ccnc(NS(=O)(=O)c2ccc(NC(=O)C3CCCNC3=O)cc2)n1 (stereo not given) | i | >57
O=C(COC(=O)CNC(=O)c1ccco1)NCCN1C(=O)CSC1=O | i | >57
CSc1ccc(-c2nnn(CC(=O)NCc3ccccc3)n2)cc1 | i | >57
Cc1cc(C)n(Cc2nc3ccccc3n2C)n1 | i | .
Cc1cc(Cl)c(S(=O)(=O)NCc2ccncc2)cc1OCC(N)=O | i | >57
CC(C)CNc1cc(Cl)c(S(=O)(=O)NCC(C)C)cc1C(=O)O | i | .
Cc1ccc(S(=O)(=O)N(C)CCCC(=O)N2CCN(C=O)CC2)cc1 | i | >57
Cc1cccc(CNc2ncnc3ccc(-c4cccnc4)cc23)c1 | i | .
CCOC(=O)CN(C(=O)CSc1nnc(-c2cccc(OC)c2)o1)c1ccc(F)cc1 | i | >57
COC(=O)[C@@]1(Cc2ccccc2)[C@H]2c3cc(C(=O)N(C)C)n(Cc4ccccn4)c3C[C@H]2CN1C(=O)c1ccccc1 | i | .
O=C(C1CCCO1)N(Cc1ccccc1)c1ccccc1 (stereo not given) | i | >57
O=C(c1oc2ccccc2c1N1CCCCC1)N1CCCCC1 | i | >57
Cc1ccc(-n2nc(C)c3c2OC(N)=C(C#N)C3c2ccoc2)cc1 (stereo not given) | i | >11
CCOCCCNC(=O)C1CCN(S(=O)(=O)N(CC(C)C)CC(C)C)CC1 | i | >57
CSCCC(NC(=O)c1ccc(=O)n(C)n1)c1nc2ccccc2[nH]1 (stereo not given) | i | >57
COCCCn1cnc2oc3nc4ccccc4nc3c2c1=O | i | .

Record cards (already shown). Screens in order: TsaE inh | PK Bst
Listed for `CCOC(=O)CN(C(=O)CSc1nnc(-c2cccc(OC)c2)o1)c1ccc(F)cc1` : i | >57
Listed for `O=C(c1oc2ccccc2c1N1CCCCC1)N1CCCCC1` : i | >57
Listed for `CSCCC(NC(=O)c1ccc(=O)n(C)n1)c1nc2ccccc2[nH]1` (stereo not given) : i | >57
Listed for `Cc1ccnc(NS(=O)(=O)c2ccc(NC(=O)C3CCCNC3=O)cc2)n1` (stereo not given) : i | >57
Listed for `N#C[C@H](c1ccccc1)N1CCCN([C@@H](C#N)c2ccccc2)C1c1ccccc1O` (stereo not given in full) : i | .

Additional results follow.
canonical_smiles | TsaE inh | PK Bst
COc1ccc(OC)c(CCNC(=O)CN2C(=O)CC(C)(C)S(=O)(=O)c3ccccc32)c1 | i | .
CCCCNC(=O)c1ccccc1C(=O)NCCCC | i | >57
COc1ccc(S(=O)(=O)N2CCC(C(=O)N3CCCC3)CC2)cc1Cl | i | >57
Cc1cc2nc(C)n(CCCN)c2cc1C | i | >57
CCOC(=O)c1oc2ccccc2c1CN1CCOCC1 | i | >57
COc1ccc(CNC(=O)C2CCN(c3nccs3)CC2)cc1 | i | >57
CCN(Cc1ccccc1)S(=O)(=O)c1ccc(S(=O)(=O)N2CCN(C)CC2)cc1 | i | >57
O=C(CCS(=O)(=O)c1ccc(Cl)cc1)N1CCN(c2ccccc2F)CC1 | i | >57
O=C(O)CSc1nnc(-c2cccnc2)n1Cc1ccccc1 | i | >57
CC(CCc1ccccc1)NC(=O)c1ccc(Br)o1 (stereo not given) | i | >57
CCCn1c(=NC(=O)c2ccncc2)c(C#N)cc2c(=O)n3cccc(C)c3nc21 | i | >57
CCOC(=O)CCNCC1COc2ccccc2O1 (stereo not given) | i | >57
CCn1cc(S(=O)(=O)CC(=O)Nc2ccc(C)cc2)c2ccccc21 | i | >57
COc1ccccc1CC1(C)NC(=O)N(CC(=O)N2CCc3ccccc3C2)C1=O (stereo not given) | i | >57
O=c1c2ccccc2nc2n1-c1ccccc1CCC2 | i | >57
C[C@]12CC[C@@H]3c4ccc(O[C@@H]5O[C@H](C(=O)O)[C@@H](O)[C@H](O)[C@H]5O)cc4CC[C@H]3[C@@H]1C[C@@H](O)[C@@H]2O | . | >11
COc1ccc(OC)c(NC(=O)C2CCCC2)c1 | i | >57
COc1ccc(CC(=O)NCc2cn3ccsc3n2)cc1 | i | >57
COc1ccc2[nH]cc(CCNc3ccnc(-c4ccoc4)n3)c2c1 | i | .
COc1cccc(Nc2ncc3ncc(=O)n(Cc4ccc(F)cc4)c3n2)c1 | i | .
O=C(c1ccc(Br)o1)N1CCN(C/C=C/c2ccccc2)CC1 | i | >57
CC1=C(C)CC(C(=O)c2ccccc2)C(C(=O)O)C1 (stereo not given) | i | .
Cn1c(=O)c2c(nc(/C=C\c3cccc(Cl)c3)n2C)n(C)c1=O | i | .
C=CCn1c(=O)c2ccccc2n2c(SCC(=O)N3CCCc4ccccc43)nnc12 | i | >57
Cn1c(SCC(=O)NCc2ccc(F)cc2)nc2ccccc21 | i | >57
c1ccn2c(SCc3cn4ccsc4n3)nnc2c1 | i | >57
CC(=O)Nc1ccc2c(c1)C(=O)N(C1CCCCC1)C2=O | i | >57
CC(C)CC(=O)Nc1ccccc1N1CCN(C(=O)c2ccccc2)CC1 | i | >57
O=S(=O)(NCc1ccccn1)c1ccc(F)cc1 | i | .
CCCCn1c(=NC(=O)c2cccnc2)c(C(=O)OCC)cc2c(=O)n3ccccc3nc21 | i | >57
CCCCOc1ccc(/C(O)=C2/C(=O)C(=O)N(CCN(C)C)C2c2ccc(O)c(OC)c2)cc1 (stereo not given) | i | >57
Oc1ccc2c(c1)C1CCCC1(N1CCOCC1)O2 (stereo not given) | . | >26
CCC(=O)N1CCc2cc(S(=O)(=O)NCCC(=O)Nc3cc(C)cc(C)c3)ccc21 | i | >57
O=C(NCCc1ccccc1)C1CCN(S(=O)(=O)c2ccc(-c3nn[nH]n3)cc2)CC1 | i | >57
Cn1c(CNc2ccccc2)cc(=O)n(C)c1=O | i | .
N#Cc1c(SCC(=O)O)nc(N2CCCCC2)c2c1CCCC2 | . | >26
O=C(NC1(C(F)(F)F)NC(=O)N(C2CCCC2)C1=O)C1CC1 (stereo not given) | i | >57
CCC(NC(=O)Cn1cnc2c(=O)n(C)c(=O)n(C)c21)c1ccccc1 (stereo not given) | i | >57
CCn1c(=O)c(C(=O)NCCc2ccccc2)c(O)c2ccccc21 | i | >57
COc1nc(N2CCCC2)nc(-n2cc(-c3ccccc3)nn2)n1 | i | >57

An excerpt of these results, with two lines to a compound.
Every second line gives: TsaE inh | PK Bst
- O=C(NCCc1ccccc1)C1CCN(S(=O)(=O)c2ccc(-c3nn[nH]n3)cc2)CC1
  i | >57
- COc1cccc(Nc2ncc3ncc(=O)n(Cc4ccc(F)cc4)c3n2)c1
  i | .
- COc1ccc(S(=O)(=O)N2CCC(C(=O)N3CCCC3)CC2)cc1Cl
  i | >57

Further results follow:
canonical_smiles | TsaE inh | PK Bst
CCOC(=O)N1CCc2c(sc3c2C(=O)NC(c2ccc(-c4ccc(Cl)cc4)o2)N3)C1 (stereo not given) | i | >57
O=c1c2ccccc2nc(SCc2cn3ccsc3n2)n1-c1ccccc1 | i | >57
COCCn1c(=O)c(-c2cccs2)nc2cnc(Oc3ccccc3)nc21 | i | .
CCCCOC(=O)CSc1nc(N)c(C#N)c(-c2ccc(OCC)cc2)c1C#N | i | >57
COc1ccc(CCNC(=O)C2(C)CCC(=O)N2Cc2ccc3c(c2)OCO3)cc1OC (stereo not given) | i | .
c1ccc(OCCOc2ncnc3sccc23)cc1 | i | >57
CCCn1c(=O)c(C(=O)NCc2ccncc2)c(O)c2ccccc21 | i | >57
CC(C)C(NS(=O)(=O)c1cccc2nsnc12)C(=O)N1CCc2ccccc2C1 (stereo not given) | i | >57
COc1ccccc1Cn1nnc2c(=O)[nH]c(C3CCN(C(=O)c4ccc(C)cc4)CC3)nc21 | i | >57
COc1ccc2cc3cc(C(=O)NCCN4CCc5ccccc5C4)oc3nc2c1 | i | 0.76*
Cc1[nH]nc2nc(SCC(=O)NCC3CCCO3)n(-c3ccc(Br)cc3)c(=N)c12 (stereo not given) | i | .
COc1ccccc1OCc1ccc(C(=O)NC(C)(C)C)o1 | i | >57
CC(C)CCOc1ccc(C(=O)NCCC(=O)N2CCOCC2)cc1 | i | >57
CCC(=O)N1CCN(c2ccccc2NC(=O)COc2cc(C)ccc2C(C)C)CC1 | i | >57
Clc1cc(Cl)c(OCc2nc(-c3ccccn3)no2)cc1Cl | i | >57
COC(=O)c1cc(=O)n(Cc2cccs2)c(=NCc2cccs2)s1 | i | >57
S=c1[nH]nc(-c2ccccc2)n1C1C=CCCC1 (stereo not given) | i | .
O=C(O)CCC(=O)Nc1nc(-c2ccccc2)cs1 | i | >57
COCCCN(C(=O)c1ccco1)c1nc(-c2cc(OC)ccc2OC)cs1 | i | >57
COc1ccc(-c2ccc(-c3noc(C)n3)c(OC)n2)cc1 | i | >57
CCOC(=O)C(NC(=O)Nc1cccc(C)n1)(OCC(F)(F)F)C(F)(F)F (stereo not given) | i | >57
CN1CCN(C(=O)CN(c2cccc(Cl)c2)S(=O)(=O)c2ccccc2)CC1 | i | >57
CC(C)CNC(=O)NC1C(NC(=O)NCC(C)C)N(C)C(=O)N1C (stereo not given) | i | 10*
CCC(=O)N1CCN(c2cc3c(cc2F)c(=O)c(C(=O)O)cn3CC)CC1 | i | >57
CCc1nccn1S(=O)(=O)c1ccc2ccc(C)cc2c1 | i | >57
COc1ccc(N2C(=O)CC(Sc3ncn[nH]3)C2=O)c(OC)c1 (stereo not given) | i | .
C=CCNC(N)=S | i | .
COc1ccc(OC)c(-c2cc(C(=O)Nc3cc(C)on3)no2)c1 | i | >57
O=C(CCN1CCN(Cc2ccccc2)CC1)Nc1cccc(Cl)c1 | i | >57
CN1C(=O)C2(Nc3ccccc3-c3nc4ccccc4n32)c2ccccc21 (stereo not given) | i | >57
O=C(NCc1ccco1)C(Cc1ccccc1)N1C(=O)C2C3C=CC(C3)C2C1=O (stereo not given) | i | >57
CCOc1ccc(S(=O)(=O)NCc2ccco2)c2ccccc12 | i | .
O=C(O)c1c2c(nc3ccc(S(=O)(=O)N4CCC(C(=O)N5CCCCC5)CC4)cc13)CCCC2 | i | .
CNC(=O)CN(c1cccc(Br)c1)S(C)(=O)=O | i | >57
O=C(CCc1ccccc1)Nc1c(F)c(F)c(F)c(F)c1F | i | .
O=C(CSCC(=O)Nc1nccs1)Nc1ccccc1 | i | >57
C=CCOc1ccc(C2/C(=C(\O)c3ccc(F)cc3)C(=O)C(=O)N2CCCN(C)C)cc1 (stereo not given) | . | >11
CC(NC(=O)Nc1nccs1)(C(F)(F)F)C(F)(F)F | . | >26
O=C(CSCCc1ccccn1)Nc1ccccn1 | i | >57
CC1=C(C)CC2C(=O)N(c3cccc4ccccc34)C(=O)C2C1 (stereo not given) | i | .
Cc1cc(C)c2c(C)nn(C3CCCCC3)c2n1 | i | >57
CCOC(=O)Cc1csc(NC(=O)CSc2nnc(-c3ccncc3)n2Cc2ccco2)n1 | i | >57
Cc1ccc(CN2CCNC(=O)C2CC(=O)O)o1 (stereo not given) | i | .
Cc1ccc(Nc2nc(Oc3ccc(=O)[nH]n3)nc(N(C)C)n2)cc1 | i | .
Nc1ccc(N)c(Cl)c1 | ? | .
Cc1cc(C)cc(N(CC(=O)NCc2ccc3c(c2)OCO3)C(=O)CCC(=O)Nc2ccccn2)c1 | i | >57
CCCCN=C(C)C1=C(O)CSC1=O | i | .
O=C(O)C1C2CCCCC2=C2CCCCC2C1C(=O)O (stereo not given) | i | .
COCC(=O)N1CCC2(CC1)CN(C(c1ccccc1)c1ccccc1)C2 | i | .
COc1ccccc1CN1CCCC2(CCN(C(=O)c3c(C)noc3C)CC2)C1 | i | .
CCOC(=O)C1C(=O)CC(O)(c2ccccc2)CC1c1ccccc1 (stereo not given) | i | >57
Cc1nc2ccccc2c(=O)n1/N=C/c1ccccn1 | i | >57
CCOC(=O)c1nnn(-c2nonc2N)c1CSc1ccc(C)cc1 | i | >57
c1cncc(CNc2c3c(nc4nnnn24)CCCC3)c1 | i | >57
Cc1noc(NS(=O)(=O)c2cccc3c(N(C)C)cccc23)c1C | i | .
O=C(NCCc1c[nH]c2ccccc12)c1c(Cl)nc2sccn12 | i | >57
COc1ccc(N2C(C)=CS/C2=C(/C#N)c2nnc(N3CCOCC3)n2-c2ccccc2)cc1 | i | >57
COc1ccc(S(=O)(=O)NC2CCCCC2)c(C)c1C | i | i
Cn1c(=O)c2c(nc(Br)n2Cc2ccccc2Cl)n(C)c1=O | i | >57
CN(C)CCCOC(=O)c1ccc(Cl)cc1Cl | . | >26

Later entries.
canonical_smiles | TsaE inh | PK Bst
O=C(Nc1nc2c(s1)CCc1ccccc1-2)c1cccs1 | i | .
O=C(c1ccco1)N1C(=O)c2cccc3c(S(=O)(=O)N4CCCC4)ccc1c23 | i | >57
CCN1C(=O)/C(=C\N2CCN(c3ccccc3)CC2)SC1=S | i | >57
O=[N+]([O-])c1cccc(Cl)c1 | i | .
COC(=O)N1CCC[C@@]2(CCN(C(=O)Nc3cccc(F)c3)C2)C1 | i | .
O=C1CC(c2ccco2)CC(O)=C1C=NCCO (stereo not given) | i | .

An excerpt; rates above refer to the full screens.
